Screening data: PubChem BioAssay, several laboratories
FGF22 binding: binders of recombinant human FGF22 by thermal shift. Q9HCT0. SYPRO orange fluorescence; percent of sucrose octasulfate shift, DMSO zero. calls only at 9.99 µM. 1.5% of 340,000 active;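 active means melting point raised past a set limit in the mean and every replicate; three in four hits are not shown here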
Target sequence (Q9HCT0 whole entry, looked up): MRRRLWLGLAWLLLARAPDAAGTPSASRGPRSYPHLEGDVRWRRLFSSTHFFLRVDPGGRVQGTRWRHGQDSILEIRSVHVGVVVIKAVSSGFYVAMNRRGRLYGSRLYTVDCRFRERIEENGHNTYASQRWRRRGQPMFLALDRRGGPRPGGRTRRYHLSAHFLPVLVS
HNF4A DNA FP: change in binding of human HNF4 alpha to DNA; activity change, % at 10 µM; AID 1224865; 0.3% of 360,000 active; P41235; HNF4a-FITC DNA binding, fluorescence polarization, 1 h; in the data active means activity change above about 30%, passing the limit was not always enough;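 further: controls were the assay level and a saturating level of protein; the project sought stronger binding though the title names inhibitors; some compounds called inactive have numbers as strong as hits; positive values seem to mean higher polarization but the record does not say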
Target sequence (P41235 whole entry, looked up): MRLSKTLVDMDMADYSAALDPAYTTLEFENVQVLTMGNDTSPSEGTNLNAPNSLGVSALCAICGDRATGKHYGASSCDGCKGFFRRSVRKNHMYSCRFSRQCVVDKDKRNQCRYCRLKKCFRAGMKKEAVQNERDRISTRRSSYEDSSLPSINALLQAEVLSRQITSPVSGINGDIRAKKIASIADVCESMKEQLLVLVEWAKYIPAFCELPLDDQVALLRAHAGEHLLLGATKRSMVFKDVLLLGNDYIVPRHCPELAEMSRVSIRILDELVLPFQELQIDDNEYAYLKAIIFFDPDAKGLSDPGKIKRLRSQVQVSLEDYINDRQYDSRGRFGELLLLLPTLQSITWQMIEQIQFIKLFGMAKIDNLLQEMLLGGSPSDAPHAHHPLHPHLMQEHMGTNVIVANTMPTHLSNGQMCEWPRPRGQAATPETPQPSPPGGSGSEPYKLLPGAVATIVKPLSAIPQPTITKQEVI
* = called active by the depositor; i = inactive. The list is partial; count on the stated rates, not on these rows.

The line under a structure holds: FGF22 binding | HNF4A DNA FP
> COc1ccccc1Cc1c(-c2ccccc2)nc2ccc(Br)cn12
    i | 17.3
> CCCCCCCCN1C(=O)[C@H](CC(=O)NCc2ccc(C)o2)C[C@@]2(C(=O)OC)CC(C)(C)CC=C12
    i | -0.9
> COc1cc(C(=O)N(C(C)C)C2CCCCC2)cc(OC)c1OC
    i | -4.3
> O=C(NCc1cccnc1)c1cc(C2CCCCN2C(=O)c2cccs2)on1 (stereo unspecified)
    i | 0.6
> O=C(c1[nH]c(C(F)(F)F)nc1-c1ccccc1)N1CCN(c2ncc(C(F)(F)F)cc2Cl)CC1
    i | -1.3
> Cc1cccc(CC(=O)NCCS(=O)(=O)N2CCN(c3ccccc3)CC2)c1
    i | -1.0
> Cc1cccc(C)c1-n1nnnc1C1(C)CCC(=O)N1CC1CCCCC1 (stereo unspecified)
    i | 4.0
> CCc1nc2ccc(C(=O)NCc3ccccc3OC)cn2c1N(CCC(C)C)CCN(C)C
    i | 0.8
> CCCCCCN1C[C@H](n2cc(COC(=O)c3ccccc3)nn2)[C@@H](O)C[C@@H]1c1ccc(C)cc1
    i | 0.8
> Nc1nc2c(ncn2[C@@H]2O[C@H](CNCc3cnc(N4CCOCC4)nc3)[C@@H](O)[C@H]2O)c(=O)[nH]1
    i | 0.5
> CCOC(=O)[C@]12CCCC=C1N(Cc1ccc3c(c1)OCO3)C(=O)[C@H](CC(=O)N1CCN(C(=O)C3CC3)CC1)C2
    i | 2.7
> CCCNC(=O)c1cc(C2CCCCN2C(=O)OC)on1 (stereo unspecified)
    i | 1.2
> CCOC(=O)[C@]12CCC=C1N(Cc1ccc3c(c1)OCO3)C(=O)[C@H](CC(=O)NCCC(C)C)C2
    i | -2.9
> CCOC(=O)C1=CCC(c2ccccc2Cl)N(S(=O)(=O)c2ccc(C)cc2)C1 (stereo unspecified)
    i | -1.3
> CC1=CC(=NOS(=O)(=O)c2ccc(C)cc2)CC(C)(C)C1
    i | 3.1
> COc1ccc(-c2ccc(CCC(=O)O)n2-c2cc(OC)ccc2OC)cc1
    i | 0.3
> CCNC(=S)Nc1ccc2c(c1)c(=O)n(C)n2-c1ccc(C(C)(C)C)cc1
    i | 4.7
> Cc1ccccc1-c1nc(S(=O)(=O)c2ccccc2)c(NCCN2CCOCC2)o1
    i | -1.2
> Cc1cccc(S(=O)(=O)N(C)C[C@@H]2OCc3cnnn3CCCC(=O)N([C@@H](C)CO)C[C@@H]2C)c1
    i | -5.5
> COC1=C(Br)C(=O)c2nc(C)ccc2C1=O
    i | -12.2
> CCCC(=O)N1CCCC1(C)C(=O)Nc1cc(C)ccc1C (stereo unspecified)
    i | 3.8
> Cc1ccc2ccccc2c1C(O)c1ncc(-c2cccc(C(F)(F)F)c2)[nH]1 (stereo unspecified)
    i | 3.2
> O=C(O)c1sccc1S(=O)(=O)N1CCCCC1
    i | 0.8
> CCOc1ccc(N=Cc2ccc([N+](=O)[O-])cc2)c(O)c1
    i | 5.3
> C/C(NCCc1ccc(O)cc1)=C1/CCOC1=O
    i | 3.1
> O=C(NCc1cccs1)c1ccc(Cl)c(S(=O)(=O)N2CCOCC2)c1
    i | 1.1
> O=C1CSC(=S)N1N=Cc1c(F)cccc1Cl
    i | 3.5
> O=C(NCCc1ccccc1C(F)(F)F)c1cc(COc2ccccc2)on1
    i | 10.8
> COc1cc(NC(=O)C2=C(C)OCCS2)c(Cl)cc1C(=O)NCCCN1CCCC(C)C1 (stereo unspecified)
    i | -3.2
> Cc1cccc(C(=O)N2CCC[C@H]2C(=O)N2CCC[C@H]2C(=O)NCc2ccncc2)c1
    i | 1.3

Three entries already listed, sorted by formula weight, high to low:
The line under a structure holds: FGF22 binding | HNF4A DNA FP
> Cc1cccc(C(=O)N2CCC[C@H]2C(=O)N2CCC[C@H]2C(=O)NCc2ccncc2)c1
    i | 1.3
> O=C(NCc1cccs1)c1ccc(Cl)c(S(=O)(=O)N2CCOCC2)c1
    i | 1.1
> O=C(NCCc1ccccc1C(F)(F)F)c1cc(COc2ccccc2)on1
    i | 10.8

Further results.
The line under a structure holds: FGF22 binding | HNF4A DNA FP
> CC(=O)Nc1cc(-c2ccsc2)cn2c(-c3ccc(F)cc3)cnc12
    i | 11.9
> O=C(NCc1ccccc1Cl)c1csc([C@@H]2O[C@H](CO)[C@@H](O)[C@H]2O)n1
    i | 2.2
> CCc1nc2c(OCC(=O)C(C)(C)C)cccn2c1N(C)C(=O)c1ccccc1F
    i | 4.5
> Cc1cccc(C)c1NC(=O)C1C(c2ccc3c(c2)OCO3)=Nc2ccccc2N1C(=O)c1ccccn1 (stereo unspecified)
    i | 1.7
> COc1ccc(C(C)(NC(C)=O)c2nc(-c3cccc4cccnc34)cs2)cc1 (stereo unspecified)
    i | 1.8
> Cc1cc2c(cc1C)-c1nnnn1C(N1CCC(Cc3ccccc3)CC1)C(=O)N2 (stereo unspecified)
    i | -1.0
> CCCCN(C=O)c1c(CC)nc2ccc(C(=O)NCCc3ccccn3)cn12
    i | -2.1
> C[C@H]1CN([C@@H](C)CO)C(=O)CCCn2cc(nn2)CO[C@@H]1CN(C)S(=O)(=O)c1ccc2c(c1)OCCCO2
    i | 1.1
> CC1(c2nnnn2-c2ccc3c(c2)OCCO3)CCC(=O)N1CC(F)(F)F (stereo unspecified)
    i | -3.0
> COc1ccc(-c2ccc(CN3C(C)C(=O)N(Cc4cn(CCC5OCCO5)nn4)CCS3(=O)=O)cc2)cc1 (stereo unspecified)
    i | 0.6
> CC1(C)N=C(N)N=C(N)N1c1cccc(CC(=O)Nc2ccccc2)c1
    i | -0.9
> CCOC(=O)c1ccc(S(=O)(=O)N2CCC(C(=O)NCC3COc4ccccc4O3)CC2)cc1 (stereo unspecified)
    i | 2.1
> CC1(C(=O)NCc2ccccc2)CSCC(=O)N1Cc1cccc(C(F)(F)F)c1 (stereo unspecified)
    i | 3.0
> CCCNC(=O)C1(C)CCN1C(=O)c1ccc(C(C)(C)C)cc1 (stereo unspecified)
    i | -3.1
> CN(CCc1ccccc1)C(c1cc2ccccc2o1)c1nnnn1C(C)(C)C (stereo unspecified)
    i | -2.9
> CC(C)n1nnnc1C1c2ccccc2C(=O)N1CCc1c[nH]c2ccccc12 (stereo unspecified)
    i | -1.3
> CCCNC(=O)c1cc2c(c(-c3cccc(-c4ccccc4F)c3)n1)[C@@H](CCO)N(C(=O)CC1CC1)C2
    i | 0.6
> C=C(C)c1cccc(C(C)(C)NC(=O)N2CCN(C(=O)OCC)CC2)c1
    i | -5.4
> CCc1nc2c(OCC(=O)C(C)(C)C)cccn2c1N(C=O)Cc1ccccc1
    i | -1.5
> COc1cc(C2(C)SCCCS2)cc(OC)c1OC
    i | -0.4
> C[C@H]1CN([C@@H](C)CO)C(=O)CCCn2cc(nn2)CO[C@@H]1CN(C)C(=O)C1CCCCC1
    i | 1.9
> CC(C)OC(=O)N(C)C[C@H]1OCc2cnnn2CCCC(=O)N([C@H](C)CO)C[C@@H]1C
    i | -1.3
> Cc1ccc(S(=O)(=O)Nc2ccccc2OC(C(=O)OC(C)(C)C)C(=O)OC(C)(C)C)cc1
    i | -3.2
> CCOC(=O)N1CCN(S(=O)(=O)N2CCCC(C(=O)NCc3cc(Br)ccc3OC)C2)CC1 (stereo unspecified)
    i | -7.2
> COc1ccc(C(=O)C[C@@H]2OC[C@H](C)N2S(=O)(=O)c2ccc(C)cc2)cc1OC
    i | 7.9
> CC1(C(=O)O)CCN1C(=O)c1cccnc1Oc1ccccc1 (stereo unspecified)
    i | 0.5
> CC(C)OC(=O)N(C)C[C@H]1OCc2cnnn2CCCC(=O)N([C@H](C)CO)C[C@H]1C
    i | -3.2
> Cc1cccc(CN2CCN(C3CN(Cc4cn(Cc5cccc(C(F)(F)F)c5)nn4)S(=O)(=O)C3)CC2)c1 (stereo unspecified)
    i | -0.9
> C#CCOc1ccc(CNC[C@H]2O[C@@H](n3ccc(=O)[nH]c3=O)[C@H](O)[C@@H]2O)cc1
    i | -1.6
> COc1ccc(Cl)cc1C1=NOC2(CCC2)C(=O)N1Cc1ccc(NC(C)=O)cc1
    i | -0.7

One compound at a time, from the list above. Order of values: FGF22 binding | HNF4A DNA FP
CC(C)OC(=O)N(C)C[C@H]1OCc2cnnn2CCCC(=O)N([C@H](C)CO)C[C@H]1C in the list: i | -3.2
COc1ccc(C(=O)C[C@@H]2OC[C@H](C)N2S(=O)(=O)c2ccc(C)cc2)cc1OC in the list: i | 7.9
CC1(C(=O)O)CCN1C(=O)c1cccnc1Oc1ccccc1 (stereo unspecified) in the list: i | 0.5
COc1ccc(Cl)cc1C1=NOC2(CCC2)C(=O)N1Cc1ccc(NC(C)=O)cc1 in the list: i | -0.7
C[C@H]1CN([C@@H](C)CO)C(=O)CCCn2cc(nn2)CO[C@@H]1CN(C)C(=O)C1CCCCC1 in the list: i | 1.9

Next section
The line under a structure holds: FGF22 binding | HNF4A DNA FP
> COC(=O)[C@]12CCCCC=C1N(Cc1ccco1)C(=O)[C@H](CC(=O)NCc1ccc(OC)c(OC)c1)C2
    i | 2.9
> CC(C)OC(=O)N(C)C[C@@H]1OCc2cn(nn2)CCCC(=O)N([C@@H](C)CO)C[C@H]1C
    i | -1.7
> CC(C)(C)C1CCNC(=O)CC1 (stereo unspecified)
    i | -0.1
> FC(F)(F)c1ccccc1Cc1c(-c2cccc(Cl)c2)nc2c3ccccc3ccn12
    i | 3.8
> CSCCNC(=O)C1(C)CCN1C(=O)C/C=C/c1ccccc1 (stereo unspecified)
    i | -1.4
> Clc1ccccc1-c1cc2nc(NCc3ccco3)ccn2n1
    i | 1.0
> O=C(Nc1ccc(Oc2ccccc2)nc1)[C@H]1O[C@@H](n2ccc(=O)[nH]c2=O)[C@H](O)[C@@H]1O
    i | 2.4
> COc1ccc(N2C(=O)c3ccccc3NC(=O)C2C(=O)Nc2ccc(N3CCOCC3)cc2)cc1 (stereo unspecified)
    i | 0.1
> Cc1ccc([C@H]2C[C@@H](n3cc(-c4ccc(F)cc4)nn3)[C@H](O)CN2CC2CCCCC2)cc1
    i | 4.0
> CCCNC(=O)C1(C)CCN(C(=O)c2cccnc2Oc2ccccc2)C1 (stereo unspecified)
    i | -0.2
> O=C(NCc1ccc(F)cc1)C1CCCN1S(=O)(=O)c1ccc(F)cc1 (stereo unspecified)
    i | 1.3
> COCCn1c(C(=O)N(C)C)cc2c1C[C@H]1CN(C(=O)c3ccccc3)[C@@](Cc3ccc(F)cc3)(C(=O)OC)[C@@H]21
    i | -0.5
> C[C@H]1CN([C@@H](C)CO)C(=O)c2cc(-c3cccc(F)c3)cnc2O[C@@H]1CN(C)S(C)(=O)=O
    i | 3.2
> C[C@H](CO)N1C[C@H](C)[C@@H](CN(C)Cc2ccc(O)cc2)OCc2cnnn2CCCC1=O
    i | 1.1
> Cc1cc(F)ccc1C(O)c1ncc(-c2ccc(Oc3ccccc3)cc2)[nH]1 (stereo unspecified)
    i | -1.5
> Cc1cccc(C)c1-n1nnnc1-c1nc2cc(Br)ccc2[nH]c1=O
    i | -0.9
> COc1ccc(NC(=O)C2c3ccccc3OCC(=O)N2Cc2cccnc2)cc1 (stereo unspecified)
    i | 1.1
> CN1CCC(C)(C(=O)Nc2ccc3c(c2)OCCO3)C1 (stereo unspecified)
    i | -4.9
> CN1CCN(C2CN(Cc3cn(Cc4ccc(C(F)(F)F)cc4)nn3)S(=O)(=O)C2)CC1 (stereo unspecified)
    i | -3.2
> C[C@@H]1CCCCO[C@H](CN(C)C(=O)Nc2ccc(C(F)(F)F)cc2)[C@@H](C)CN([C@H](C)CO)C(=O)c2cc(NC(=O)c3ccncc3)ccc2O1
    i | 13.8
> COCc1cn(CC(C)n2c(=O)c3ccccc3n2Cc2cc(C(C)C)no2)nn1 (stereo unspecified)
    i | 0.0
> O=C(/C=C/[C@H]1O[C@@H](n2ccc(=O)[nH]c2=O)[C@H](O)[C@@H]1O)NCCCc1ccccc1
    i | -2.8
> Cc1cccc(C)c1NC(=S)NC(=O)c1cccc(Cl)c1
    i | -2.5
> CC#CCN(Cc1ccco1)C(=O)C1CCC(=O)N(CCc2cccc(F)c2)C1 (stereo unspecified)
    i | 1.7
> c1ccc(CN2CCC3CC2c2c3cccc2N2CCOCC2)cc1 (stereo unspecified)
    i | -1.2
> COC(=O)C[C@@H]1C[C@H]2c3cc(NC(=O)CC4CC4)ccc3O[C@H]2[C@@H](CO)O1
    i | -2.7
> Cc1c(Cl)cccc1NC(=O)CSc1nc(=O)n(CCCN2CCOCC2)c2c1CCCC2
    i | -0.3
> CC1=C(C(=O)N(C(C)C)C(C)C)CC(CC(=O)NC2CCCC2)C(=O)N1Cc1ccccc1 (stereo unspecified)
    i | 1.1
> O=C(c1ccccc1)c1sc(Nc2ccc3c(c2)OCO3)nc1-c1ccccc1
    i | 9.2
> COc1ccc(C2=Nc3ccccc3N(C(=O)c3ccc(C(F)(F)F)cc3)C2C(=O)Nc2c(C)cccc2C)cc1 (stereo unspecified)
    i | 4.8
> O=C(Cc1ccc(Br)cc1)Nc1cccc(S(=O)(=O)N2CCCCC2)c1
    i | 0.2
> CCc1nc2ccc(C(=O)Nc3cccc(OCC(=O)N(C)C)c3)cn2c1N(C)Cc1ccc(N(C)C)cc1
    i | -2.2
> COc1ccc(C(O)c2ncc(-c3ccccc3Cl)[nH]2)cc1 (stereo unspecified)
    i | -1.9
> CCCS(=O)(=O)NC(=O)C1(C)CCCN(C(=O)Cc2ccc3ccccc3c2)C1 (stereo unspecified)
    i | -4.2
> C/C=C/c1ccc2c(c1)O[C@H](CN(C)C(=O)NC1CCCC1)[C@H](C)CN([C@H](C)CO)S2(=O)=O
    i | -1.3
> CCN(CC)c1ncnc2c1ncn2[C@H]1CN(Cc2ccc(-c3ccccc3)cc2)C[C@@H](CO)O1
    i | -0.6
> Cc1cc(S(=O)(=O)N2CCCCC2CCNC(=O)C(=O)NCCN2CCOCC2)ccc1F (stereo unspecified)
    i | -1.0
> CC(=O)Nc1ccc(-c2ccnc3c2CC(C(=O)Nc2cccc(OC(F)(F)F)c2)O3)cc1 (stereo unspecified)
    i | 0.7
